Rango release inh: prevents RanGTP from dissociating the Rango-importin beta complex. 0.071% of 340,000 active. O95149+P62826. Potency, µM (doses to about 46.1 µM), inactives show at the top dose activity change, negative = inhibition. AID 540253. Biochemical FRET Rango-importin beta, RanGTP-induced dissociation; active means falling FRET ratio curve, often poorly fitted, with flat reads before Ran was added; inconclusive means other falling curves, or compound fluorescence or quenching; inactive means flat or rising ratio curve;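 also: potency is read from the fitted curve at half-maximal effect; % of control where 0% means no effect; nearly all actives have a fitted effect of over 45% in size; -100% = wells without RanGTP and RCC1; the record marks most hits as doubtful in a second field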
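Compounds preincubate 5 min with complex of recombinant Rango and importin beta in PBS with 1 mM DTT. Ran (0.6 uM) loaded with 2 mM GTP plus 0.2 uM RCC1 starts dissociation; FRET is recorded 45 min later.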
Rango complex inh: Rango-importin beta binding inhibition; Rango CFP/YFP FRET sensor + importin beta, 45 min; 0.031% of 340,000 active; Potency, µM (highest dose often 92.2 µM), without a hit: at the top dose inhibition of complex formation; Q14974; active = rising FRET ratio curve, often small or poorly fitted; inconclusive = mostly compound fluorescence or quenching in the first reads; inactive = flat curves in all reads;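 also: potency is read from the fitted curve at half-maximal effect; 0% = DMSO wells and 100% = buffer wells lacking importin beta; nearly all actives have a fitted effect of over 15% in size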
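FRET biosensor (snurportin 1 IBB flanked by EYFP and cerulean), 50 nM, with compound 5 min, then 0.125 microM importin beta in PBS, 1 mM DTT, 0.02% Tween-20, 0.1% BSA. CFP/YFP ratio read after 45 min at room temperature; pre-read flags interference.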
miR-21 reporter: raises the signal of a miR-21 reporter | Potency, µM (titrated, usually from 38.3 µM), for the others: top-dose reporter change, positive = more light | HeLa miR-21 FLuc reporter, luciferase, 48 h | 340,000 tested, under 10 active; active = well fitted rising curve with a large enough effect; inconclusive = small, poorly fitted or top-dose-only effect; inactive = no such curve, though single readings can be large or run the other way;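 also: % of control where 0% means no effect; miR-21 action dims this reporter so a rising signal means less miR-21 action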
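Using DMEM plus 10% FBS, HeLa miR-21-FLuc cells are incubated with test compounds (final up to about 40uM) for 48 hours; firefly luciferase signal is then imaged following reagent-mediated lysis.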
GLA inh pH 4.5: blocks human alpha-galactosidase A at pH 4.5 | 230,000 tested, under 10 active | activity change, negative = inhibition, % at 105 µM | P06280 | purified enzyme, 4-MU-alpha-Gal fluorescence, pH 4.5; inconclusive = small, poorly fitted or top-dose-only inhibition, or a rising curve; inactive = flat fitted curve, though single readings scatter; no compound was filed as active;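 also: 0% = full activity with enzyme and -100% = basal without enzyme; dose as in the result columns while the protocol names 77 µM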
Target sequence (P06280 whole entry, looked up): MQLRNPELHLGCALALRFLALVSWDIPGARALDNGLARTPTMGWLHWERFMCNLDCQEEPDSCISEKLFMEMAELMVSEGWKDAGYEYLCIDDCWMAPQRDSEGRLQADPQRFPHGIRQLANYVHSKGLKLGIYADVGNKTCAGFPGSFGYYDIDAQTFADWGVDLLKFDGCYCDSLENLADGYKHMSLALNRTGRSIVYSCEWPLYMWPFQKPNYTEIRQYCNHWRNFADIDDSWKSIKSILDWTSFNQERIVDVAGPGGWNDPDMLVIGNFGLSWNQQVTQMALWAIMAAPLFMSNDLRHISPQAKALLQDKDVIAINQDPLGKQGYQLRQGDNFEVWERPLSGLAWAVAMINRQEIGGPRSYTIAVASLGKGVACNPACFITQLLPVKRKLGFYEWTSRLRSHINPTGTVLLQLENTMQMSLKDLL
* = called active by the depositor; ? = inconclusive; . = not tested or not shown. Some of the compounds tested, so the mix of outcomes need not match the whole.

Every second line gives: Rango release inh	Rango complex inh	miR-21 reporter	GLA inh pH 4.5
- COc1ccc(C)cc1NC(=O)C1CCCN1S(=O)(=O)c1ccccc1F (stereo not given)
→ -5.8%	-0.9%	.	.
- COC(=O)c1c(NC(=O)COC(=O)CCNS(=O)(=O)c2ccccc2)sc(C)c1C
→ -4.4%	0.1%	-3.2%	.
- O=C(O)c1ccc(Cn2c(=S)[nH]c3cc(Cl)ccc3c2=O)cc1
→ 2.7%	0.0%	0.0%	.
- Cc1cc(C)c(OCCOCCN2CCN(C)CC2)c(Cl)c1
→ 3.6%	0.6%	0.3%	.
- Cc1cccc(C)c1NC(=O)CCN1C(=O)C2C3CCC(C3)C2C1=O (stereo not given)
→ 14.0%	-3.5%	-4.5%	6.4
- COC(=O)CSc1nnc(-c2ccc(S(=O)(=O)N3CCCCC3)cc2)o1
→ 5.5%	-1.5%	0.4%	6.4
- Cc1nc2c(C#N)cnn2c2c1CCN(Cc1ccccc1)N2C
→ 6.7%	-4.5%	-5.0%	-2.7
- Cc1cccc(N(C(=O)Cc2cccs2)C(C(=O)NCc2ccco2)c2ccncc2)c1 (stereo not given)
→ -13.6%	-0.8%	-6.9%	3.2
- CCc1ccc(C(C(=O)NC2CCCCC2)N(C(=O)c2csnn2)C2CC2)cc1 (stereo not given)
→ ?	?	0.5%	.
- COc1ccc(N2CC(NC(=O)c3ccc4ccccc4c3)CC2=O)cc1OC (stereo not given)
→ -0.7%	-0.3%	.	.

Further records:
Every second line gives: Rango release inh	Rango complex inh	miR-21 reporter	GLA inh pH 4.5
- CC1(C)C2CC[C@]3(C)C(CC=C4[C@@H]5C[C@](C)(CO)CC[C@]5(C(=O)O)CC[C@]43C)[C@@]2(C)CC[C@@H]1O (stereo not given in full)
→ -7.5%	3.5%	.	.
- Cc1cccc(Oc2ncnc3onc(C)c23)c1
→ -12.7%	-0.1%	-6.0%	-1.8
- N#C/C(=N\Nc1ccc(F)cc1)C(=N)N1CCCCC1
→ ?	10.6%	-45.0%	-2.3
- O=C1CS(=O)(=O)N(Cc2ccccc2F)c2ccc(Br)cc21
→ -17.1%	5.6%	.	.
- CC(Nc1nc(-c2ccc3c(c2)NC(=O)CO3)cs1)c1ccccc1 (stereo not given)
→ -7.4%	-0.8%	-2.7%	9.4
- CN1CCN(S(=O)(=O)c2ccc(Br)s2)CC1
→ 0.3%	2.7%	-5.8%	-5.6
- O=C1CC(c2ccco2)CC(O)=C1C=NCCN1CCN(C2CC(=O)N(c3ccccc3)C2=O)CC1 (stereo not given)
→ -0.5%	-3.6%	2.0%	1.0
- C=CCn1c(SCC(=O)Nc2cccnc2Cl)nnc1-c1ccc(C(C)(C)C)cc1
→ -13.6%	4.9%	-6.8%	-1.1
- O=C(c1ccccc1Cl)N1CCC(N2CCC(C(=O)N3CCCC3)CC2)CC1
→ 0.7%	0.9%	-3.9%	.
- O=C(Nc1cccc2c1CCCC2)C1CCN(C(=O)NC2CCCCC2)CC1
→ 8.3%	-4.2%	-4.2%	0.7

Next part.
Every second line gives: Rango release inh	Rango complex inh	miR-21 reporter	GLA inh pH 4.5
- CCOC(=O)c1c(C)c(C(=O)NCC2CCCO2)c(C)n1CC (stereo not given)
→ 7.6%	-0.2%	-7.5%	-2.0
- CC(=O)[C@@]12O[C@@H]1C[C@H]1[C@@H]3CC[C@H]4C[C@@H](O)CC[C@]4(C)[C@H]3CC[C@@]12C
→ -5.8%	-0.1%	-2.6%	.
- c1csc(-c2nc3ccccn3c2NC2CCCCC2)c1
→ -22.2%	?	-4.5%	3.1
- Cn1c(=O)c2c(nc(SCC(=O)O)n2Cc2cc3c(cc2Cl)OCO3)n(C)c1=O
→ -10.9%	0.7%	2.1%	8.2
- O=C(NCc1ccco1)C1(c2ccc(Cl)cc2)CCCC1
→ 11.7%	1.7%	-0.4%	0.7
- CCOc1ccc2[nH]c3c(NCCC(C)C)ncnc3c2c1
→ 1.1%	-4.9%	24.6%	.
- Cc1cc(NC(=O)CSc2nc3c(c(=O)n2CCc2ccccc2)SC(C)C3)no1 (stereo not given)
→ 14.1%	-1.6%	-9.2%	8.0
- COc1ccc(C(c2nnnn2C2CCCCC2)N2CCN(c3ccccc3)CC2)cc1 (stereo not given)
→ .	.	0.9%	-3.6
- COc1ccc(NC(=O)CSc2nnc(CNC(=O)c3ccco3)o2)c(OC)c1
→ 0.5%	-0.2%	3.8%	-1.0
- COc1ccccc1/C=C1\CCC(C2CCCC2)C1=O (stereo not given)
→ 1.3%	1.4%	-30.3%	.

Continued:
Every second line gives: Rango release inh	Rango complex inh	miR-21 reporter	GLA inh pH 4.5
- COc1cc(NC(=O)c2ccc(S(=O)(=O)N(C)c3ccccc3)cc2)cc(OC)c1
→ -11.1%	5.2%	.	.
- Cc1ccc(N(CC(=O)NC2CCCCC2)C(=O)CCCC(=O)Nc2ccccn2)c(C)c1
→ -1.7%	-1.6%	-2.1%	.
- CCc1ccccc1Cn1c(=O)oc2cccnc21
→ 1.3%	?	-4.2%	-0.4
- CCC(Oc1ccccc1)C(=O)Nc1nc2ccccc2[nH]1 (stereo not given)
→ 23.3%	2.4%	-32.8%	-6.8
- O=C(Cc1cccc(NC(=O)C2CCN(C(=O)C3CCC3)CC2)c1)Nc1cccc(C(=O)N2CCCC2)c1
→ 19.2%	0.8%	.	.
- Cc1ccc(NC(=O)C(=O)NCCN2CCN(C(=O)C(c3ccccc3)c3ccccc3)CC2)cc1
→ 15.0%	-2.1%	-3.6%	-6.7
- Cc1noc(C)c1C(=O)N1CCCC(Nc2ccc(C(C)C)cc2)C1 (stereo not given)
→ -3.9%	3.2%	-2.7%	.
- O=C(Cn1ncc2c3ccccc3n(Cc3ccccc3F)c2c1=O)NCCN1CCOCC1
→ -4.6%	-1.2%	-1.7%	.
- CN1CCN(C(=O)/C(=C/c2cn(S(=O)(=O)N(C)C)c3ccccc23)NC(=O)c2ccccc2F)CC1
→ -8.3%	0.0%	2.8%	.
- O=S(=O)(O)c1cccc2cccc(Nc3ccccc3)c12
→ ?	?	.	.

Going on with the list:
Every second line gives: Rango release inh	Rango complex inh	miR-21 reporter	GLA inh pH 4.5
- Cc1cccc(C(=O)N2CCN(c3ncnc4c3cnn4-c3ccccc3)CC2)c1
→ -13.0%	2.4%	-0.7%	-11.5
- O=C(CNC(=O)c1ccccc1)c1ccccc1
→ 7.7%	-1.6%	.	.
- N#Cc1ccccc1OCC(=O)NNC(=O)CCC1CCCC1
→ 1.7%	-1.6%	.	.
- O=C(CSc1nc2ccccc2c(=O)[nH]1)Nc1ccc(C(=O)O)cc1
→ -1.7%	0.8%	-1.1%	6.5
- CCN(CC(=O)Nc1ccc2c(c1)OCCO2)C(=O)CCOc1ccccc1
→ 16.9%	-6.5%	.	.
- Cc1cccc(N2C(=O)c3cccc(Oc4ccc(Cl)cc4)c3C2=O)c1
→ 11.4%	3.1%	-4.6%	-11.5
- CC1CCCN(S(=O)(=O)c2ccccc2[N+](=O)[O-])C1 (stereo not given)
→ 13.0%	14.4%	-5.3%	-5.2
- CC(=O)c1ccc(OC(=O)c2ccc(Br)o2)cc1
→ 1.8%	-0.8%	1.6%	-2.3
- COc1cccc(OC)c1C(=O)NNC(=O)c1cccc(COc2ccc3c(c2)CCC3)c1
→ -2.5%	-1.3%	-32.2%	-4.2
- COc1ccc(C(=O)C2CCCN(C(=O)c3cccc(Cn4cccn4)c3)C2)cc1F (stereo not given)
→ -2.7%	-1.5%	1.0%	.

Some of the entries above, set out differently.
Rango release inh | Rango complex inh | miR-21 reporter | GLA inh pH 4.5 | SMILES
16.9% | -6.5% | . | . | CCN(CC(=O)Nc1ccc2c(c1)OCCO2)C(=O)CCOc1ccccc1
11.4% | 3.1% | -4.6% | -11.5 | Cc1cccc(N2C(=O)c3cccc(Oc4ccc(Cl)cc4)c3C2=O)c1
13.0% | 14.4% | -5.3% | -5.2 | CC1CCCN(S(=O)(=O)c2ccccc2[N+](=O)[O-])C1 (stereo not given)
1.8% | -0.8% | 1.6% | -2.3 | CC(=O)c1ccc(OC(=O)c2ccc(Br)o2)cc1

New compounds follow
structure,Rango release inh,Rango complex inh,miR-21 reporter,GLA inh pH 4.5
COC(=O)c1ccc(NC(=O)c2c(C(=O)Nc3ccccc3)sc3nc(C)cc(=O)n23)cc1,-5.3%,1.9%,0.2%,-3.4
CCCCN(C(=O)NC(=O)Nc1ccccc1OCC)S(C)(=O)=O,18.0%,-3.1%,-7.0%,7.2
Cc1ccc(C(=O)NCCC(=O)N2CCOCC2)cc1,13.2%,0.6%,-27.2%,.
NNC(=O)c1[nH]c2ccc(Br)cc2c1-c1ccccc1,-6.9%,1.4%,25.9%,-14.0
Cc1ccc(NC(=O)C2CCCN2S(=O)(=O)c2ccc(F)cc2)c(C)c1 (stereo not given),-5.7%,-0.3%,5.4%,-0.8
CC1=C(C)CC(C(=O)Nc2ccc(C(N)=O)cc2)C(C(=O)O)C1 (stereo not given),-1.9%,?,-5.1%,-5.1
CN1C2C=C(N(CCc3c[nH]c4ccccc34)C(=O)c3ccc(Cl)cc3)CC1CC2 (stereo not given),?,7.3%,4.1%,1.2
CCOC(=O)NCc1ccc(Cl)c(Cl)c1,13.4%,-0.9%,-4.8%,-5.8
COc1cc(-c2[nH]ncc2CN2CCSCC2)cc(OC)c1OC,1.0%,5.2%,3.3%,-5.3
Cc1cnc(C(=O)OC(C)C(=O)NC2CCCc3ccccc32)cn1 (stereo not given),16.6%,3.0%,.,.
Cc1cccc(NC(=O)C2CCN(S(=O)(=O)c3c(C)[nH]c(=O)[nH]c3=O)CC2)c1,-8.8%,-0.6%,-17.9%,5.9
CC(C)OC(=O)N(C)c1ccc(C(O)(C(F)(F)F)C(F)(F)F)cc1,-4.7%,0.0%,-8.2%,-3.8
Cc1ccc(C(C)C)c(OCCNS(C)(=O)=O)c1,-7.0%,0.2%,-4.8%,4.1
O=[N+]([O-])c1ccc(OCc2cnc(Cl)s2)c([N+](=O)[O-])c1,-22.6%,-2.0%,-34.9%,-4.3
Cc1noc(C)c1NC(=O)N(C)C[C@H]1Oc2c(NS(=O)(=O)c3cn(C)cn3)cccc2C(=O)N([C@H](C)CO)C[C@@H]1C,-8.8%,1.6%,.,.
CN(C)S(=O)(=O)c1ccc(C(=O)OCc2nnc(-c3ccccc3)o2)cc1,0.8%,1.0%,-8.7%,-21.5
O=C(COC(=O)C1=Cc2ccccc2OC1)NCc1ccccc1,0.0%,9.3%,.,.
Cc1cc(C(=O)Nc2nc3c(s2)CCCC3)no1,6.0%,6.4%,-5.5%,-4.9
Cc1cc(SCc2ccccc2F)nc(=O)[nH]1,-15.0%,-7.0%,-13.7%,.
C=CCn1c(C)nnc1SCC(=O)NC1CCCCC1,0.7%,0.8%,-0.1%,.
Cc1ccc(SCC(=O)OCC(=O)NCc2cccs2)cc1C,-14.4%,-5.3%,.,.
Cc1nn2c(N3CCN(CCO)CC3)c3c(nc2c1-c1ccccc1)CCCC3,10.5%,2.6%,-12.5%,-5.9
Cn1cnnc1SCc1ccc(C#N)cc1,-2.1%,-0.3%,-1.4%,0.7
CC(OC(=O)C1CCCCC1)C(=O)Nc1ccc(S(N)(=O)=O)cc1 (stereo not given),6.7%,?,.,.
COc1ccc(/C=N/Nc2ccccn2)cc1OC,-14.5%,1.0%,-58.4%,-3.7

Carrying on:
structure,Rango release inh,Rango complex inh,miR-21 reporter,GLA inh pH 4.5
COc1ccc(-c2cnc(NCc3cc4c(cc3[N+](=O)[O-])OCO4)n2C)cc1,-17.3%,-1.7%,-12.7%,-2.5
Cc1nc(-c2ccccc2)[nH]c(=O)c1Oc1ccc(Cl)cc1Cl,5.4%,-1.0%,-1.5%,-6.6
CCN(CC)C(=O)c1sc(NC(=O)c2cccs2)c(C#N)c1C,?,?,-3.6%,4.3
CCCN(CC(=O)Nc1ccccc1C)C(=O)c1ccc(C(=O)c2ccccc2)cc1,10.4%,3.8%,.,.
CCOC(=O)Nc1ccc(S(=O)(=O)N(C)C(C)C)cc1,0.6%,-2.3%,-7.8%,9.5

Screening data deposited in PubChem BioAssay by National Center for Advancing Translational Sciences (NCATS).
